Screens (PubChem)
YopH PTP inh: YopH tyrosine phosphatase inhibitors, primary screen, biochemical, fluorescence Ex485/Em525 | YopH tyrosine phosphatase [Yersinia enterocolitica] | inhibition, %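 (about 10 µM by stock and volumes)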 | 140,000 compounds, 0.16% hits | AID 898, 2007;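 active means inhibition of 50% or more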;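 further: controls were vehicle for no effect and minimum signal wells for full effect; inactives centre near -20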
Mtb bLac sens: beta-lactam sensitization of Mtb H37Rv, H37Rv | inhibition, % at 25 µM | AID 434955, 2010 | M. tuberculosis H37Rv growth with meropenem, percent inhibition; hits of this screen are not shown here | 330,000 compounds, 0.27% hits;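 active means about 74% or more and at least 40 points above the plate without the antibiotic, then above 30% in a dose series; inconclusive means first-round hits that could not be retested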;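 further: growth measured after seven days incubation then overnight dye step; 0% = bacteria only wells and 100% = bacteria with antibiotic; twin plates without the antibiotic show which effects depend on it; some results filed as inactive read as strong as hits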
RecA intein inh: Mtb RecA intein splicing inhibitors, primary screen, biochemical, fluorescence, HTS; cell-free RecA intein splicing; AID 2221, 2009; 290,000 compounds, 0.75% hits; inhibition, %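 (about 9 µM by stock and volumes)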; Protein RecA (Mycobacterium tuberculosis (strain ATCC 25618 / H37Rv)), P9WHJ3; in the data active means inhibition above about 30%; inconclusive means no clear call, values can overlap the other calls;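 further: 0% = vehicle wells and 100% = reference inhibitor control wells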
Target sequence (P9WHJ3 whole entry, looked up): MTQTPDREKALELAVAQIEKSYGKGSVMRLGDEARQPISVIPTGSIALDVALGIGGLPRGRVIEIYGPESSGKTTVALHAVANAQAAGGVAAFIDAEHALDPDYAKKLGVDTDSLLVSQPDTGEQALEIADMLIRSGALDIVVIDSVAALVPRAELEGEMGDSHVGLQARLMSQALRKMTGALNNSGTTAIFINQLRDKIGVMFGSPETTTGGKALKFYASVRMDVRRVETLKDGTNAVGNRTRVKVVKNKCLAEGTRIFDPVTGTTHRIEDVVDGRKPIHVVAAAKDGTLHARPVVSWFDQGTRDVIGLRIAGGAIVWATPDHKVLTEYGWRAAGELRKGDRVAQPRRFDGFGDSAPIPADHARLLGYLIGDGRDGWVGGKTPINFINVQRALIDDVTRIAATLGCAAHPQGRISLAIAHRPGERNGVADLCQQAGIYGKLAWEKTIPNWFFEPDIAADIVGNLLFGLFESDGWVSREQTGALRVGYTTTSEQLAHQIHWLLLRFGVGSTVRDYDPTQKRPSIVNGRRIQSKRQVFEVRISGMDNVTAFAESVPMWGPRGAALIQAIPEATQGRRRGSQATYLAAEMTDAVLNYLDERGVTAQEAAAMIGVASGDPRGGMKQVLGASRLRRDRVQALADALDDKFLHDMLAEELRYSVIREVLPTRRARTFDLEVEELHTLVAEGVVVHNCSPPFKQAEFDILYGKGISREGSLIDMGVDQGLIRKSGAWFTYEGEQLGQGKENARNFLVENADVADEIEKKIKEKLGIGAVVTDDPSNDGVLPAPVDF
Arbovirus inh: antivirals against arbovirus infection, primary screen, cell-based, full library, 10K replicate subset; arbovirus infection cell-based antiviral screen; inhibition, % at 10 µM; 200,000 compounds, 0.37% hits; AID 1251, 2008;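 active means inhibition from about 30%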;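 further: bluetongue infection of BSR cells; cell survival read as ATP light after 72 h; 0% = infected wells without compound and 100% = uninfected wells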
Mtb H37Rv: M. tuberculosis H37Rv growth inhibitors, H37Rv strain (AID 1626) | M. tuberculosis H37Rv growth inhibition; higher % means a stronger effect | inhibition, % at 10 µM, or IC50 in µM where a hit was titrated | 220,000 compounds, 0.95% hits;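 active means confirmed in a dose series; inconclusive means inhibition above 80% but not taken into the dose series; inactive means below 80% or under 30% at every dose of the series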;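 further: bacteria incubated seven days before Alamar blue readout; 0% = bacteria only wells and 100% = bacteria with antibiotic wells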
* = called active by the depositor; ? = inconclusive; . = no result given.

compound	YopH PTP inh	Mtb bLac sens	RecA intein inh	Arbovirus inh	Mtb H37Rv
CN1C(=O)C(=O)/C(=C(/O)c2ccccc2)C1c1ccc(Br)cc1 (stereo not given)	.	-4	-0.4	.	.
Cc1cccc(OCC(=O)Nc2cccc(-c3nnc(-c4ccccc4)o3)c2)c1C	0	-1	0.1	-29	4%
O=C(c1ccco1)N(Cc1ccc([N+](=O)[O-])cc1)c1ccc(Cl)cc1	-29	-8	14	6	-5%
Cc1ccc(CNC(=O)C2CCCN(S(=O)(=O)c3cccc4nonc34)C2)cc1 (stereo not given)	.	0	-12	.	.
CC1CCN(C(=S)NC(=O)c2cccc([N+](=O)[O-])c2)CC1	.	85	0.3	.	.
CC1CN(S(=O)(=O)c2ccc(C(=O)Nc3ccc(S(=O)(=O)N4CCOCC4)cc3)cc2)CC(C)O1 (stereo not given)	.	-8	0.6	.	.
COc1ccc(/C=N/NC(=O)c2cccc(NC(=O)c3ccccc3Cl)c2)cc1OC	.	-7	2.5	-10	8%
O=C(c1ccc2c(c1)OCO2)C1CCCN(Cc2ccc(F)c(F)c2)C1 (stereo not given)	.	6	4.3	.	.
CC(C)(C)NC(=S)NCc1ccco1	-17	-5	6.1	1	6%
Cc1ccc(NS(=O)(=O)c2cccc(C(=O)NNC(=O)c3cccn3C)c2)c(C)c1	.	2	2.2	.	.
COc1ccc(NC(=O)CSc2nnc(-c3ccncc3)o2)c(OC)c1	.	-8	0.0	.	.
COc1ccc(-c2cc(=O)oc3c(C)c(OC(C)C(=O)Nc4ccc(CN5CCOCC5)cc4)ccc23)cc1 (stereo not given)	.	97	-0.9	.	.
N#CCCn1nc(-c2ccc(Br)cc2)cc1Nc1ccccc1NC(=O)C(F)(F)F	-20	-3	0.2	-26	5%
O=C(/C=C/c1ccco1)OCC(=O)c1cccc([N+](=O)[O-])c1	.	-1	3.0	.	.
O=C(O)CC[C@@H](C(=O)O)N1C(=O)c2ccccc2C1=O	.	-4	3.3	.	-12%
O=C(OCc1cc2ccccc2[nH]c1=O)C1CCCCC1	-37	-5	-0.7	6	-3%
CCOc1cc(C=C(C(=O)OC)C(=O)OC)ccc1OCc1ccc([N+](=O)[O-])cc1	-9	93	.	-38	13%
Cc1ccc(CN2C3CCCC2CC(NC(=O)c2ccc(C)cc2)C3)cc1 (stereo not given)	.	-1	-0.3	-3	4%
CN1CCN(c2ccc(C(F)(F)F)cc2NC(=O)c2ccco2)CC1	.	-4	-0.9	.	.
CN(c1ccccc1C(=O)Nc1cccc([N+](=O)[O-])c1)S(C)(=O)=O	-14	-5	-1.5	-6	-5%
CN(C)C(=O)Oc1ccc2c(c1)O/C(=C\c1cccc([N+](=O)[O-])c1)C2=O	.	0	-1.5	.	.
CCOC(=O)c1c(N2C(=O)Nc3ccccc3N2O)n[nH]c1-c1cccc(OC)c1	.	-6	0.8	1	-8%
CCOC(=O)CSc1nnc(CNC(=O)c2cccs2)n1-c1cc(OC)ccc1OC	-9	0	-0.6	1	-2%
CCOC(=O)c1c(/N=C/c2ccc(OC)cc2O)sc2c1CCN(C)C2	.	-6	-1.5	.	3%
Cc1ccc(NC(=S)Nc2ccc(F)cc2)c(C)c1	.	6	1.0	3	-3%
CN(C)C(CNC(=O)CCCc1c[nH]c2ccccc12)c1ccco1 (stereo not given)	-37	-7	1.7	-2	1%
c1csc(CNc2ccc3c(c2)OCCO3)c1	8	-13	.	-14	56%
CCOP(C)(=O)C1(C(=O)OCc2ccccc2)CC1 (stereo not given)	-32	7	0.8	-5	0%
Cc1ccc(CN2CCN(CC(=O)NCc3ccc(Cl)cc3)C2=O)cc1	-11	11	0.0	3	4%
CC(C1CC1)N(C(=O)c1ccccc1O)c1ccccc1 (stereo not given)	-31	-5	0.4	1	-5%
O=C(O)c1ccc(CSCc2ccco2)cc1	-19	-4	0.0	16	5%
CN1CCN(c2ccccc2NC(=O)c2ccc(-c3ccc(Cl)cc3Cl)o2)CC1	-13	100	0.1	-40	65µM*

Part of the list above, reduced to YopH PTP inh and Mtb bLac sens:
| canonical_smiles | YopH PTP inh | Mtb bLac sens |
| --- | --- | --- |
| c1csc(CNc2ccc3c(c2)OCCO3)c1 | 8 | -13 |
| CCOP(C)(=O)C1(C(=O)OCc2ccccc2)CC1 (stereo not given) | -32 | 7 |
| Cc1ccc(CN2CCN(CC(=O)NCc3ccc(Cl)cc3)C2=O)cc1 | -11 | 11 |
| CC(C1CC1)N(C(=O)c1ccccc1O)c1ccccc1 (stereo not given) | -31 | -5 |
| O=C(O)c1ccc(CSCc2ccco2)cc1 | -19 | -4 |
| CN1CCN(c2ccccc2NC(=O)c2ccc(-c3ccc(Cl)cc3Cl)o2)CC1 | -13 | 100 |

The list continues:
compound	YopH PTP inh	Mtb bLac sens	RecA intein inh	Arbovirus inh	Mtb H37Rv
CCOc1ccc(C(=O)NCC(=O)OCc2c(F)cccc2Cl)cc1	-28	4	0.0	7	10%
O=C(CCC1CCCC1)Nc1ccc(Br)cn1	-14	-15	-3.4	-4	-11%
CC1CCCC(NC(=O)COC(=O)CCC2CCCC2)C1C (stereo not given)	-11	-2	2.2	-1	2%
NS(=O)(=O)Oc1ccccc1	.	-4	-2.6	.	.
Cc1ccc(CS(=O)(=O)Cc2ccc(C(=O)NC3CCCCCC3)o2)cc1	.	5	3.0	.	.
Cc1ccsc1C=Nc1c(C)n(C)n(-c2ccccc2)c1=O	-23	-2	-3.5	4	-4%
CCOc1ccccc1NC(=S)N1CCC(NC(=O)NC23CC4CC(CC(C4)C2)C3)CC1	-2	13	0.4	-1	5%
N#C/C(=C\c1cccnc1)C(=O)Nc1cccc2ccccc12	-28	4	0.7	9	3%
O=S(=O)(NC1CCCCC1Nc1ccc(Cl)cc1)c1ccccc1 (stereo not given)	7	-4	9.6	-17	-5%
O=C1C2C3C=CC(CNS(=O)(=O)c4ccccc4[N+](=O)[O-])(O3)C2C(=O)N1c1ccccc1 (stereo not given)	.	-8	-0.8	3	7%
Cn1cnnc1Sc1nc2c(c(=O)n(C)c(=O)n2C)n1Cc1ccccc1Cl	9	-4	0.5	4	-18%
COc1ccc(-c2csc3ncnc(N4CCN(Cc5ccccc5)CC4)c23)cc1	.	52	4.5	.	.
CN(C)c1cc(-c2cccc(C(F)(F)F)c2)oc(=O)c1Cl	.	5	-0.5	.	.
N#Cc1nc(COc2cccc(Cl)c2)oc1NCCN1CCOCC1	.	-1	-6.7	.	3%
CSc1sccc1/C=N/NC(=O)c1ccncc1	-34	98	0.4	4	?
O=C(COc1cccc2ccccc12)NNC(=O)CSCCO	-13	-4	1.5	5	-3%
CCC(C)Sc1ccc([C@H]2N[C@@](Cc3ccccc3)(C(=O)OC)[C@H]3C(=O)N(CC)C(=O)[C@@H]23)cc1 (stereo not given in full)	.	4	6.9	.	.
COc1ccc(C(=O)NCc2nnc(SCC(=O)Nc3ccc4c(c3)OCO4)o2)cc1	.	-4	-1.0	3	-4%
CCCCCn1c(SCC2CCCO2)nc2cc(C(=O)N3CCC(C(N)=O)CC3)ccc2c1=O (stereo not given)	-33	-2	.	-32	-8%
O=C1Nc2ccccc2/C1=C/C(=O)c1cccs1	-22	100	15	-49	4.4µM*
Cc1ccc(C(=O)/C=C/N(C)C)cn1	.	-11	1.1	.	-4%
CCc1ccc(Nc2nc(N)nc(CSc3nc4ccccc4s3)n2)cc1	-12	16	-1.6	-1	28%
O=C(COc1ccc2ccc(=O)oc2c1)NC1CCN(Cc2ccccc2)CC1	.	-2	-2.3	.	.
CCOc1c(Cl)cc(CNCC(O)c2ccccc2)cc1OC (stereo not given)	.	-6	-1.1	28	9%
CC1(C)NC(=O)N(Cc2cc(=O)n3ccsc3n2)C1=O	.	-5	.	.	-24%
COc1cc(/C=C/C(=O)OCC(=O)Nc2cc(C)c(C)cc2[N+](=O)[O-])ccc1O	.	.	-2.0	.	17%
O=[N+]([O-])c1ccccc1/C=N/Nc1nccnc1Cl	-15	9	-0.6	-3	3%
O=C(Cc1ccccc1)N1CCN(c2ccc([N+](=O)[O-])cc2)CC1	.	-2	-1.5	.	.
Cc1ccc(SCc2nc3ccccc3n2CC(=O)Nc2ccc(Cl)cc2)cc1	-39	-2	0.9	-20	3%
CN(C)S(=O)(=O)c1ccc(Cl)c(NC(=O)COC(=O)/C=C/c2ccc(S(=O)(=O)N3CCOCC3)cc2)c1	-20	2	2.3	2	-3%
CC1CCCCC12NC(=O)N(CC(=O)Nc1ccc3[nH]c(=O)[nH]c3c1)C2=O (stereo not given)	.	-3	2.1	.	.
COCCNc1c([N+](=O)[O-])c(=O)n(-c2ccccc2)c2ccccc12	-27	5	-4.3	-6	2%

Entries of single compounds, looked up by structure.
COc1cc(/C=C/C(=O)OCC(=O)Nc2cc(C)c(C)cc2[N+](=O)[O-])ccc1O is entered as YopH PTP inh: .; Mtb bLac sens: .; RecA intein inh: -2.0; Arbovirus inh: .; Mtb H37Rv: 17%
Cc1ccc(C(=O)/C=C/N(C)C)cn1 is entered as YopH PTP inh: .; Mtb bLac sens: -11; RecA intein inh: 1.1; Arbovirus inh: .; Mtb H37Rv: -4%

(further entries)
compound	YopH PTP inh	Mtb bLac sens	RecA intein inh	Arbovirus inh	Mtb H37Rv
NC(=S)Cc1nc(-c2ccccc2)cs1	-20	-6	6.1	-21	3%
CCn1c(C)nc2cc(C(=O)NNS(=O)(=O)c3cc(Br)ccc3Br)ccc21	.	-7	3.8	.	-2%
CCOc1ncccc1C(=O)OCc1nnc(-c2ccccc2)o1	-38	87	.	0	29%
Cc1cc(Cn2nc(-c3ccccc3)cc2C(=O)NCC2CC2)on1	.	-1	-3.4	.	.
COc1ccc(C(=O)Nc2ccc(Nc3ccccc3)cc2)cc1Br	.	-1	1.1	.	.
COc1ccccc1NS(=O)(=O)NC(=O)c1c(C)[nH]c2ccccc12	.	4	0.7	.	.
COc1ccc(Nc2nc3cc(C)ccc3cc2C#N)c(OC)c1	.	-3	-2.6	-24	-1%
CN(C)c1ccc(C(=O)N=c2sccn2C)cc1[N+](=O)[O-]	.	-2	-0.9	.	.

Given with each value named: part of the list above
COc1ccc(Nc2nc3cc(C)ccc3cc2C#N)c(OC)c1
  YopH PTP inh: .	Mtb bLac sens: -3	RecA intein inh: -2.6	Arbovirus inh: -24	Mtb H37Rv: -1%

CN(C)c1ccc(C(=O)N=c2sccn2C)cc1[N+](=O)[O-]
  YopH PTP inh: .	Mtb bLac sens: -2	RecA intein inh: -0.9	Arbovirus inh: .	Mtb H37Rv: .

Next entries:
compound	YopH PTP inh	Mtb bLac sens	RecA intein inh	Arbovirus inh	Mtb H37Rv
C/[N+]([O-])=C1\Cc2ccccc2C1=O	-42	0	1.0	4	5%
Cc1ccc(/C=N/NC(=O)c2cccc(S(=O)(=O)Nc3ccccc3Cl)c2)o1	-13	2	-0.8	-1	0%
COc1ccccc1-c1nnc(SC)n1C	.	-1	-1.6	19	0%
O=C1c2cccc3cccc(c23)C(=O)N1CC1CCN(S(=O)(=O)c2ccc(F)cc2)CC1	-20	-2	3.4	3	13%
COc1cccc(NC(=O)CN2C(=O)CSc3nc(C)cc(C)c32)c1	.	1	-2.4	.	.
O=C(c1ccco1)N1CCN(C(c2ccc(Cl)cc2)c2nnnn2CC2CCCO2)CC1 (stereo not given)	-26	-12	1.7	1	-3%
Cc1ccc(N2CC(C(=O)Nc3ccccc3C(=O)NC3CCCCC3)CC2=O)cc1 (stereo not given)	7	-25	-4.6	-11	-1%

A portion of the library (hit frequency here may not be typical).
